# Screens as filed in PubChem BioAssay.
# MLL AF4-AF9 inh: inhibitors of human MLL-AF4/AF9 interaction; AlphaScreen, biotin-AF4 peptide binding to FLAG-AF9; inhibition, % at 10 µM; actives 0.47% (n = 350,000); AID 651704;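 active means every replicate reaching a set inhibition limit, whatever the replicate mean, cut at about 25% in these data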;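 further: 0% = plate neutral control median and 100% = total signal loss; the record names both 10 and 1 µM as test concentration; the first replicate is given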
# Target sequence (P42568 whole entry, looked up): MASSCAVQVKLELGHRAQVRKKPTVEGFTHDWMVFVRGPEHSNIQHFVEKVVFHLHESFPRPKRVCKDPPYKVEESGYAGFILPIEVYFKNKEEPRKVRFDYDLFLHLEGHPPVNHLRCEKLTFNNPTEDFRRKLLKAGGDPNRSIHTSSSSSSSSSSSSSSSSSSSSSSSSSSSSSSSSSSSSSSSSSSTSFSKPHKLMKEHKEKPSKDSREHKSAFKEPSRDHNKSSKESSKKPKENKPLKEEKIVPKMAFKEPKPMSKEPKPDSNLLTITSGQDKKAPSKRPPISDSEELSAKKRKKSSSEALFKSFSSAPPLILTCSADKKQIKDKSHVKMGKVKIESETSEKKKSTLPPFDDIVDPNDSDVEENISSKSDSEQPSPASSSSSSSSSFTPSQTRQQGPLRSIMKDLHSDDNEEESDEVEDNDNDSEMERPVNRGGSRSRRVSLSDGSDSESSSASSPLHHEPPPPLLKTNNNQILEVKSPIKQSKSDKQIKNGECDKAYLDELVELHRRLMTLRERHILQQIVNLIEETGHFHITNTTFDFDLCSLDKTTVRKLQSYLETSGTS
# Ecoli rRNA inh: inhibits bacterial ribosomal RNA function over humanized ribosomes; E. coli WT GFP vs humanized-ribosome RFP mutants, fluorescence, 24 h; active compounds read low; DMSO median 0, no signal -100; GFP signal change (wild-type ribosome), % (no concentration beside the values); actives 1.6% (n = 350,000);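 active means significant combined selectivity score with lowered wild-type GFP, culture density cut under 30%, mutant RFP and density less affected; inactive means any of these conditions unmet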; further: one replicate is shown; some compounds called inactive have numbers as strong as hits
# Ecoli rRNA inh OD600: also measured in Ecoli rRNA inh; calls as there; OD600 change, %; measured here: OD600 growth;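 optical density of the mix in the first replicate; 0 = DMSO median and -100 = no signal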
# Ecoli rRNA inh RFP: further read-out of Ecoli rRNA inh, marked with its call; RFP signal change, %; measured here: RFP humanized mutant strains;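 first replicate; 0 = DMSO median and -100 = no signal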
# * hit, by the source's call; & = joins results of further samples. An excerpt; the hit share may differ from the screen's.
# Value order – MLL AF4-AF9 inh	Ecoli rRNA inh	Ecoli rRNA inh OD600	Ecoli rRNA inh RFP
1) CN(C)C(=O)c1cccc(-c2ccc3c(c2)[C@@H]2[C@@H](CCN2C(=O)C2CCC2)[C@H](CO)N3)c1
  -2.4	4	14	-4.5
2) O=C(C1CCCCC1)N1CC(=O)N2[C@H](C1)[C@@H](c1ccc(-c3cccnc3)cc1)[C@@H]2CO
  0.1	-1	2	-7.7
3) COCCNC(=O)C[C@@H]1C[C@@H]2c3cc(NC(=O)COC)ccc3O[C@@H]2[C@@H](CO)O1
  -0.1	3	7	-0.2
4) COc1ccccc1C#Cc1ccc([C@H]2[C@@H](CO)N(C(=O)C3CCCC3)[C@H]2C#N)cc1
  -2.9	-4	-32	25
5) C[C@@H]1CCCCO[C@@H](CN(C)C(=O)Nc2ccccc2)[C@H](C)CN([C@H](C)CO)C(=O)c2cc(NC(=O)Nc3ccc(C(F)(F)F)cc3)ccc2O1
  1.2	3	7	-2.9
6) O=C1CN(S(=O)(=O)c2ccccc2)C[C@H]2[C@@H](c3ccc(C#CCc4ccccc4)cc3)[C@@H](CO)N12
  -2.4	4	2	3.7
7) CCS(=O)(=O)N1CCC2(CC1)CN[C@H](CO)c1c2c2ccc(OC)cc2n1C
  3.5	4	-3	-3.5
8) O=C(c1ccc(F)cc1)N1CC(=O)N2[C@H](CO)[C@H](c3ccc(C#Cc4ccc(F)cc4)cc3)[C@H]2C1
  -0.9	-53	-71	-9.5
9) O=C(C[C@H]1C[C@@H]2c3cc(NC(=O)NC4CCCC4)ccc3O[C@@H]2[C@H](CO)O1)NCc1ccccn1
  -0.6	1	4	-0.9
10) COc1ccc(-c2ccc([C@H]3[C@@H](CO)N4C(=O)CN(C(=O)Cc5ccccn5)C[C@@H]34)cc2)cc1
  0.5	1	7	0.3
11) O=C(C1CCCC1)N1CC2(C1)[C@@H](c1ccccc1)[C@H](CO)N2C(=O)c1cccnc1
  -6.2	2	3	-1.2
12) CCCN1[C@@H]2c3ccc(-c4ccc(F)cc4)c(=O)n3C[C@H]1[C@H](CO)[C@H]2C(=O)NCC
  -1.4	2	4	0.0
13) COc1cccc(-c2ccc(C3[C@H]4CNC[C@@H]3N4C(=O)Nc3ccc(F)cc3)cc2)c1 (some centres undefined)
  1.8&-2.8	-2&-60	10&-75	1.3&-13
14) C[C@@H]1CN([C@H](C)CO)C(=O)Cc2cc(NC(=O)Nc3ccc(F)cc3)ccc2O[C@@H]1CN(C)Cc1ccc(C(=O)O)cc1
  -5.8	-3	1	-0.9
15) CCCC#Cc1ccc([C@@H]2[C@@H](CO)N3C(=O)CN(C(=O)c4ccccn4)C[C@H]23)cc1
  0.9	-5	-5	-2.6
16) COCC(=O)N1CC(=O)N2[C@@H](CO)[C@@H](c3ccc(C#CC4CCCC4)cc3)[C@@H]2C1
  -1.7	-2	12	2.2
17) Cc1ccc(S(=O)(=O)Nc2ccc3c(c2)C(=O)N([C@H](C)CO)C[C@H](C)[C@@H](CN(C)C(=O)Cc2ccccc2)OCCCC[C@@H](C)O3)cc1
  -4.3	3	-1	-3.4
18) COc1ccc(CNC(=O)C[C@H]2CC[C@H]3[C@@H](COc4ccc(NC(=O)C(C)C)cc4C(=O)N3C)O2)cc1
  -2.1	2	3	-3.6
19) C/C=C/c1ccc2c(c1)O[C@H](CN(C)C(=O)Nc1ccc(F)cc1)[C@H](C)CN([C@H](C)CO)S2(=O)=O
  3.4	0	-30	-5.5
20) C[C@@H]1CCCCO[C@H](CN(C)Cc2ccc3c(c2)OCO3)[C@@H](C)CN([C@H](C)CO)C(=O)c2cc(NS(=O)(=O)c3ccc(F)cc3)ccc2O1
  -2.6	1	-6	-0.9
21) O=C(C[C@@H]1CC[C@H](NC(=O)C2CCOCC2)[C@H](CO)O1)NCc1ccncc1
  -4.0	1	7	-2.2
22) O=C(c1ccc(F)cc1)N1CC(=O)N2[C@H](CO)[C@@H](c3ccc(/C=C/c4ccccc4)cc3)[C@@H]2C1
  15	-1	-47	24
23) CC(C)CC#Cc1ccc([C@@H]2[C@H]3CN(C(=O)Cc4ccccc4)CC(=O)N3[C@H]2CO)cc1
  10	2	-8	5.9
24) CO[C@@H]1CN(C)C(=O)c2cc(NC(=O)CC(F)(F)F)ccc2OC[C@H](C)N(C(C)=O)C[C@H]1C
  -2.1	3	5	3.6
25) CCCC(=O)Nc1ccc2c(c1)C(=O)N(C)C[C@H](OC)[C@H](C)CN(Cc1cncnc1)[C@@H](C)CO2
  0.1	0	3	1.3
26) O=C(c1ccccc1)N1CC(=O)N2[C@H](C1)[C@H](c1ccc(C#CCC3CCCC3)cc1)[C@@H]2CO
  4.6	-16	-44	27
27) O=C(C1CCCCC1)N1CC(=O)N2[C@H](C1)[C@@H](c1ccc(C#CCc3ccccc3)cc1)[C@@H]2CO
  0.0	-2	-25	26
28) CCCC#Cc1ccc([C@H]2[C@H]3CN(C(=O)Nc4ccc(F)cc4)CC(=O)N3[C@H]2CO)cc1
  0.6	-9	-49	19
29) O=C(NCCN1CCCCC1)[C@@H]1N[C@@H]2c3ccc(-c4ccccc4)c(=O)n3C[C@@H]2[C@H]1CO
  4.0	-1	4	-4.0
30) COCC#Cc1ccc([C@H]2[C@@H](CO)N3C(=O)CN(C(=O)c4cccnc4)C[C@@H]23)cc1
  0.9	5	6	-3.0

# 3 compounds picked at random from those above:
# Value order – MLL AF4-AF9 inh	Ecoli rRNA inh	Ecoli rRNA inh OD600	Ecoli rRNA inh RFP
4) COc1ccccc1C#Cc1ccc([C@H]2[C@@H](CO)N(C(=O)C3CCCC3)[C@H]2C#N)cc1
  -2.9	-4	-32	25
13) COc1cccc(-c2ccc(C3[C@H]4CNC[C@@H]3N4C(=O)Nc3ccc(F)cc3)cc2)c1 (some centres undefined)
  1.8&-2.8	-2&-60	10&-75	1.3&-13
17) Cc1ccc(S(=O)(=O)Nc2ccc3c(c2)C(=O)N([C@H](C)CO)C[C@H](C)[C@@H](CN(C)C(=O)Cc2ccccc2)OCCCC[C@@H](C)O3)cc1
  -4.3	3	-1	-3.4

# Next part
# Value order – MLL AF4-AF9 inh	Ecoli rRNA inh	Ecoli rRNA inh OD600	Ecoli rRNA inh RFP
31) O=C(C[C@@H]1CC[C@@H]2[C@H](COC[C@@H](O)CN2C(=O)c2ccc3c(c2)OCO3)O1)NCCN1CCCC1
  -9.7	3	2	8.8
32) CCCNC(=O)C[C@@H]1CC[C@@H]2[C@H](COC[C@@H](O)CN2C(=O)C2CCOCC2)O1
  -1.3	5	6	26
33) COc1ccccc1-c1ccc2n(c1=O)C[C@H]1[C@H](CO)[C@@H](C(=O)NCc3ccccn3)[C@@H]2N1C
  -2.8	1	3	0.3
34) Cc1ccc(S(=O)(=O)Nc2ccc3c(c2)C(=O)N([C@@H](C)CO)C[C@H](C)[C@H](CN(C)C(=O)Cc2ccccc2)OCCCC[C@H](C)O3)cc1
  -0.3	-3	-14	0.5
35) COc1cccc(S(=O)(=O)N[C@H]2C=C[C@H](CC(=O)NCc3ccccc3)O[C@H]2CO)c1
  -2.5	1	5	-1.8
36) Cc1ccccc1-c1ccc([C@H]2[C@H]3CN(S(C)(=O)=O)CC(=O)N3[C@H]2CO)cc1
  -0.4	1	5	0.6
37) COc1ccc2c3c(n(C)c2c1)[C@@H](CO)N(CC1CC1)CC31CN(C(=O)NC2CCCC2)C1
  -1.3	-1	1	-0.1
38) O=C1CN(Cc2ccccc2)C[C@H]2[C@@H](c3ccc(-c4ccccc4)cc3)[C@@H](CO)N12
  2.6	-19	-63	5.8
39) CO[C@@H]1CN(C)C(=O)c2cc(NS(=O)(=O)c3ccc(Cl)cc3)ccc2OC[C@@H](C)N(C)C[C@H]1C
  -0.4	-1	12	0.1
40) O=C(C[C@H]1C[C@H]2c3cc(NC(=O)C4CCC4)ccc3O[C@H]2[C@@H](CO)O1)NCC(F)(F)F
  0.2	1	5	-0.7
41) COc1ccc2c3c(n(C)c2c1)[C@H](CO)N(C(=O)C1CCCCC1)CC31CCN(C(=O)Nc2cccc(F)c2)CC1
  -1.7	-3	3	2.8
42) Cc1ccc(S(=O)(=O)Nc2ccc3c(c2)C(=O)N([C@H](C)CO)C[C@H](C)[C@@H](CN(C)Cc2ccc(C(=O)O)cc2)OCCCC[C@H](C)O3)cc1
  -2.7	3	-5	-0.1
43) O=C(CCN1CCCCC1)NCC[C@H]1CC[C@H](NC(=O)C2CCCCC2)[C@@H](CO)O1
  -0.6	5	14	-4.2
44) CN(C)C(=O)c1ccc(-c2ccc([C@H]3[C@@H](CO)N4C(=O)CN(C(=O)C5CCC5)C[C@@H]34)cc2)cc1
  -1.6	1	-8	-3.6
45) COCC(=O)N(C[C@H]1N[C@H](CO)[C@@H]1c1ccc(-c2cncnc2)cc1)C(C)C
  -2.0	1	9	-0.2
46) O=C(C(=Cc1ccc(F)cc1)c1ccccc1)c1ccc(O)cc1
  5.7	-55	-77	-17
47) Cc1ccccc1S(=O)(=O)N1CC(=O)N2[C@H](C1)[C@@H](c1ccc(C#CC3CC3)cc1)[C@@H]2CO
  -3.0	-3	-40	37
48) O=C(C[C@H]1CC[C@H]2[C@@H](COC[C@@H](O)CN2S(=O)(=O)c2ccccc2)O1)N[C@H]1CCN(Cc2ccccc2)C1
  1.1	1	-8	-4.7
49) CN(C)CCCNC(=O)C[C@@H]1CC[C@@H]2[C@H](COC[C@H](O)CN2CC2CC2)O1
  -0.1	4	6	-4.6
50) COCC#Cc1ccc([C@@H]2[C@H]3CN(C(=O)C4CCC4)CC(=O)N3[C@H]2CO)cc1
  -7.1	4	1	2.5
51) COc1ccc2c3c(n(C)c2c1)[C@H](CO)N(C(=O)Nc1ccc(F)cc1)CC31CCN(Cc2cccnc2)CC1
  19	0	-13	-0.1
52) COc1cccc(-c2ccc(C3[C@H]4CNC[C@@H]3N4Cc3ccc4c(c3)OCO4)cc2)c1 (some centres undefined)
  2.8&2.4	-58&0	-76&4	-10&-0.1
53) COc1ccccc1C#Cc1ccc2c(c1)[C@H]1[C@H](CCN1C(=O)c1ccc(F)cc1)[C@@H](CO)N2
  0.3	2	10	4.0
54) Cc1ccc(S(=O)(=O)N(C)C[C@@H]2OCCCC[C@@H](C)Oc3ccc(NC(=O)CCC(F)(F)F)cc3C(=O)N([C@@H](C)CO)C[C@@H]2C)cc1
  4.0	0	4	-3.4
55) CC(=O)NC[C@H]1[C@@H](c2ccc(C3=CCCC3)cc2)[C@@H](CO)N1C(=O)C1CCC1
  -0.5	1	1	-0.6
56) CO[C@H]1CN(C)C(=O)c2ccc(NS(C)(=O)=O)cc2OC[C@H](C)N(CCC(F)(F)F)C[C@H]1C
  -1.6	3	3	-1.9
57) O=C(NC1CCCC1)N1CC(=O)N2[C@H](CO)[C@H](c3ccc(C4=CCCC4)cc3)[C@@H]2C1
  0.3	-4	-10	-0.6
58) CCS(=O)(=O)N1CC(=O)N2[C@H](CO)[C@@H](c3ccc(C#CCc4ccccc4)cc3)[C@@H]2C1
  -0.7	-2	-3	2.2
59) CCC(=O)N1C[C@H](C)[C@@H](OC)CN(C)C(=O)c2cc(NC(=O)NC3CCCC3)ccc2OC[C@H]1C
  -11	3	6	-2.9
60) O=C(C[C@@H]1C[C@@H]2c3cc(NC(=O)C4CCOCC4)ccc3O[C@@H]2[C@H](CO)O1)NCC1CC1
  -1.5	1	3	-0.3
61) COc1ccc2c3c([nH]c2c1)[C@H](CO)N(S(C)(=O)=O)CC31CN(C(=O)c2cccnc2)C1
  -2.8	1	6	-5.2
62) CNC(=O)C[C@H]1CC[C@H]2[C@H](COc3ccc(NC(=O)Nc4ccc(F)c(F)c4)cc3C(=O)N2C)O1
  1.5	-6	-1	0.0
63) COCC(=O)N1[C@H](C(=O)Nc2ccccc2)[C@@H](CO)[C@@H]2Cn3c(ccc(-c4ccccc4)c3=O)[C@@H]21
  0.1	0	4	0.2
64) COc1ccc2c3c([nH]c2c1)[C@H](CO)N(C(=O)CN(C)C)CC31CCN(Cc2cncnc2)CC1
  13	6	18	-2.1
65) Cc1ccccc1S(=O)(=O)N1[C@@H]2CNC[C@H]1C2c1ccc(-c2cccc(C(=O)N(C)C)c2)cc1 (some centres undefined)
  -1.4&-1.7	1&1	13&7	-1.9&3.5
66) Cc1noc(C)c1S(=O)(=O)Nc1ccc2c(c1)C(=O)N([C@H](C)CO)C[C@@H](C)[C@@H](CN(C)C)OCCCC[C@H](C)O2
  -2.3	-1	6	1.4
67) CO[C@H]1CN(C)C(=O)c2cc(NC(=O)NC(C)C)ccc2OC[C@@H](C)N(C(=O)CN(C)C)C[C@@H]1C
  -0.4	2	3	-3.8
68) C[C@@H]1CN([C@H](C)CO)C(=O)Cc2cc(N(C)C)ccc2O[C@@H]1CN(C)S(C)(=O)=O
  -0.3	-2	-5	-3.3
69) CC(C)NC(=O)N1CC(=O)N2[C@H](CO)[C@@H](c3ccc(C#CCN(C)C)cc3)[C@@H]2C1
  2.0	2	10	-7.3
70) COCC(=O)N1[C@H](CO)[C@H](c2ccc(C#CCC3CCCC3)cc2)[C@@H]1C#N
  0.6	-6	-43	5.6
71) CC(C)NC(=O)Nc1ccc2c(c1)C(=O)N([C@H](C)CO)C[C@H](C)[C@@H](CN(C)C(=O)Cc1ccccc1)OCCCC[C@H](C)O2
  1.0	-3	9	-1.4
72) COc1ccc(NC(=O)N(C)C[C@H]2OCCCC[C@@H](C)Oc3ccc(NS(=O)(=O)c4ccc(C)cc4)cc3C(=O)N([C@@H](C)CO)C[C@H]2C)cc1
  -0.1	1	-11	-0.6
73) CCCNC(=O)C[C@@H]1CC[C@@H]2[C@H](COc3ccc(NS(=O)(=O)c4ccccc4C)cc3C(=O)N2C)O1
  -1.1	-3	0	2.8
